Screening data (PubChem)
miR-21 reporter: raises the signal of a miR-21 reporter. 340,000 tested, under 10 active. HeLa miR-21 FLuc reporter, luciferase, 48 h. Potency, µM (doses to about 38.3 µM), without a hit: top-dose reporter change, positive = more light. AID 2288; active = well fitted rising curve with a large enough effect; inconclusive = small, poorly fitted or top-dose-only effect; inactive = no such curve, though single readings can be large or run the other way;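 also: % of control where 0% means no effect; miR-21 action dims this reporter so a rising signal means less miR-21 action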
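Luminescence from a firefly luciferase reporter carrying a miR-21 binding site downstream, stably expressed under a CMV promoter in HeLa cells that make miR-21 endogenously, reports miRNA modulation after 48 h compound exposure up to approximately 40uM final.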
An asterisk follows results filed as active; u = inconclusive.

| # | Compound | miR-21 reporter |
| --- | --- | --- |
| 1 | O=c1[nH]cc(N=Cc2cc([N+](=O)[O-])ccc2O)c(=O)[nH]1 | -3% |
| 2 | Cc1ccc(C(=O)c2cn(CC(=O)NCc3ccccc3)c3nc(C)ccc3c2=O)cc1 | -2% |
| 3 | Cc1cc(C)c(NC(=O)Cn2c(=O)oc3cc(S(=O)(=O)N4CCCCCC4)ccc32)c(C)c1 | 14% |
| 4 | COc1ccc(CCNC(=O)c2cc3c(=O)n4cccc(C)c4nc3n2C)cc1 | -4% |
| 5 | COc1ccc(N2CCN(C(=O)CCn3nc(C)c(S(=O)(=O)N4CCCC4)c3C)CC2)cc1 | -5% |
| 6 | COc1cccc(CNC(=O)c2ccc3c(c2)sc2nc(-c4cccc(OC)c4)cn23)c1 | 3% |
| 7 | Cc1ccc(NC(=O)CSc2nc3ccccc3nc2Cc2ccccc2)c(Cl)c1 | -8% |
| 8 | Cc1ccc2sc(N3CCN(C(=O)CCS(=O)(=O)c4ccc(Cl)cc4)CC3)nc2c1C | 1% |

Quoted at random: 2 records from the list
| # | Compound | miR-21 reporter |
| --- | --- | --- |
| 5 | COc1ccc(N2CCN(C(=O)CCn3nc(C)c(S(=O)(=O)N4CCCC4)c3C)CC2)cc1 | -5% |
| 6 | COc1cccc(CNC(=O)c2ccc3c(c2)sc2nc(-c4cccc(OC)c4)cn23)c1 | 3% |

In the list so far, these contain a Cl atom:
| # | Compound | miR-21 reporter |
| --- | --- | --- |
| 7 | Cc1ccc(NC(=O)CSc2nc3ccccc3nc2Cc2ccccc2)c(Cl)c1 | -8% |
| 8 | Cc1ccc2sc(N3CCN(C(=O)CCS(=O)(=O)c4ccc(Cl)cc4)CC3)nc2c1C | 1% |

Following part.
| # | Compound | miR-21 reporter |
| --- | --- | --- |
| 9 | COc1cc(C2CC(=O)N(CC(=O)Nc3ccccc3F)c3ccccc3S2)cc(OC)c1OC (stereo not drawn) | u |
| 10 | COc1ccc(N2CCN(C(=O)CCn3cnc4onc(-c5ccc(F)cc5)c4c3=O)CC2)cc1 | 0% |
| 11 | Cc1ccccc1CS(=O)(=O)c1ncc(Cl)c(C(=O)Nc2nnc(C(C)C)s2)n1 | u |
| 12 | CCc1nnc2c(Nc3ccc(Br)c(C)c3)nc3ccccc3n12 | -4% |
| 13 | COc1cc(CNC(=O)c2ccc3nc(CCc4ccccc4)oc3c2)cc(OC)c1OC | 15% |
| 14 | Cn1ncc2c(Nc3cc(C(F)(F)F)ccc3Cl)ncnc21 | -3% |
| 15 | COCCNC(=O)Nc1cc(C(=O)NCc2ccc(C(C)C)cc2)ccc1N1CCCC1 | -16% |
| 16 | CSc1ccccc1NC(=O)C1=CC(c2ccc3c(c2)OCO3)=NS(=O)(=O)N1C | 4% |

Along the list, from the results shown:
Compounds 4 to 13 in miR-21 reporter: -4%, -5%, 3%, -8%, 1%, u, 0%, u, -4%, 15%

(list continues)
| # | Compound | miR-21 reporter |
| --- | --- | --- |
| 17 | O=C(NCc1ccccc1Cl)c1ccc(CS(=O)(=O)c2ccc(Br)cc2)o1 | 24% |
| 18 | COc1ccc(-c2cc3nccc(-c4cc(Cl)c(C)cc4O)n3n2)cc1 | -8% |
| 19 | O=C1CCSC2(C(=O)N(Cc3ccc(F)cc3)c3ccccc32)N1c1ccccc1 (stereo not drawn) | u |
| 20 | C=Cc1ccc(Cn2c(=O)n(-c3ccc(C)cc3)c(=O)c3c2c2cc(OC)ccc2n3C)cc1 | 0% |
| 21 | CCOc1ccc(OCC)c(NS(=O)(=O)c2ccc3[nH]c(=O)ccc3c2)c1 | -15% |
| 22 | COc1ccc(CCNC(=O)c2cc(Sc3cccc(Cl)c3)nc3ccccc23)cc1OC | 26% |
| 23 | CC(C)OCCCN1C(=O)c2[nH]nc(-c3ccccc3O)c2C1c1ccc(OCc2ccccc2)cc1 (stereo not drawn) | u |
| 24 | O=C(NC1CCCC1)c1ccc2c(=O)n(Cc3ccccc3)c(SCc3ccccc3)nc2c1 | -4% |
| 25 | O=C(Cn1nc(Cc2cccnc2)c2ccccc2c1=O)Nc1ccc(F)c(Cl)c1 | 1% |
| 26 | COc1ccc(S(=O)(=O)NCC(c2ccc(N(C)C)cc2)N2CCOCC2)cc1 (stereo not drawn) | 3% |
| 27 | O=C(NCCc1ccccc1)c1ccc(Cn2c(SCc3ccccc3)nc3cccnc32)cc1 | 12% |
| 28 | Cc1ccccc1Oc1nc2c(c(=O)n(C)c(=O)n2C)n1Cc1ccc(Br)cc1 | 0% |

Sorted by the number under miR-21 reporter (high to low): some entries from above.
item | Structure | miR-21 reporter
17 | O=C(NCc1ccccc1Cl)c1ccc(CS(=O)(=O)c2ccc(Br)cc2)o1 | 24%
25 | O=C(Cn1nc(Cc2cccnc2)c2ccccc2c1=O)Nc1ccc(F)c(Cl)c1 | 1%
28 | Cc1ccccc1Oc1nc2c(c(=O)n(C)c(=O)n2C)n1Cc1ccc(Br)cc1 | 0%
24 | O=C(NC1CCCC1)c1ccc2c(=O)n(Cc3ccccc3)c(SCc3ccccc3)nc2c1 | -4%
18 | COc1ccc(-c2cc3nccc(-c4cc(Cl)c(C)cc4O)n3n2)cc1 | -8%

The list is partial. The share of hits here may be higher or lower than overall.
